HTT prom inh = HTT promoter inhibition; 48,000 tested, 0.93% active; HEK293 HTT promoter firefly luciferase reporter (activity 0% = vehicle and -100% = no light), 24 h; AID 1508623; Potency, µM (highest dose often 57.5 µM), without a hit: at the top dose activity change, negative = inhibition, hits mostly inhibitors; active = well fitted inhibition curve with a large enough effect; inconclusive = small, poorly fitted or top-dose-only effect; inactive = no such curve, though single readings can be large or run the other way; note: nearly all actives have a fitted effect of over 50% in size
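HEK293 cells carrying firefly luciferase reporters were seeded at 2,500 per well in Opti-MEM and cultured for 24 h. They were then treated with compounds at up to 57.5 uM final for 24 h at 37 degrees C before Dual-Glo luminescence readout.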
PMP22 txn = modulates PMP22 transcription in S16 Schwann cells; S16 Pmp22-F2sN Schwann cells (luciferase reporters placed in the Pmp22 gene), FLuc/NLuc coincidence luminescence, 24 h; Potency, µM (doses to about 57.5 µM), without a hit: at the top dose activity change, negative = inhibition, most hits filed as inhibitors; 43,000 tested, 2% active; active = clear falling dose curves in both reporters; inconclusive = both reporters move, but less clearly or upward; inactive = either reporter flat; the % is the NLuc reporter signal; note: % is set by controls: 0 for no effect and ±100 for the full control effect; some results filed as inactive show a strong effect at the top dose
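Rat S16 Pmp22-F2sN cells, 500-1,000/well in phenol red-free DMEM + 10% FBS, compound-treated 24 h (37C, 5% CO2). Luminescence: FLuc read, Stop&Glo added, NLuc read.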
Active calls of the source: *; u = inconclusive; x = not tested or not shown; & = joins results of further samples; [ ] = another dose, or the depositor's remark. Potency is the fitted concentration of half-maximal effect.

#	SMILES	HTT prom inh	PMP22 txn
1	Cc1ccc(NC(=O)CN2C(=O)CN=C(c3ccccc3)c3ccccc32)cc1Cl	u	-1%
2	O=C(Oc1ccc([N+](=O)[O-])cc1)N1CCN(Cc2cccc(Oc3ccccc3)c2)CC1	u	x
3	Cc1cccc(-n2c(/C=C/c3ccccc3O)nc3ccccc3c2=O)c1	-9%	u
4	O=C(N/N=C/c1ccc([N+](=O)[O-])o1)c1cc([N+](=O)[O-])cc([N+](=O)[O-])c1O	-2%	x
5	CN(C)CCc1c[nH]c2ccc(O)cc12	-2%[116 µM]	x
6	Cc1cccc(-n2c(/C=C/c3cccc4ccccc34)nc3ccccc3c2=O)c1	u	u
7	Fc1ccc(C(OCCN2CCN(CCCc3ccccc3)CC2)c2ccc(F)cc2)cc1	u	x
8	COc1ccc(OCC(=O)N2CCN(Cc3cc(=O)n4nc(-c5ccc(OC)cc5)sc4n3)CC2)cc1	-30%	u
9	COC(=O)C(Cl)C(=O)OC	-4%	x
10	Cc1ccc(OCC(=O)Nc2ccc(Cl)cc2C(=O)c2ccccc2)c(Br)c1	12%	-18%
11	NC1(c2ccccc2)CCCCC1	-12%[116 µM]	x
12	CC(=CCCC1=CCC(C2=CC(=O)OC2O)OC1O)CCC1=C(C)CCCC1(C)C (stereo not given)	-11%	x
13	CCCC12CN3CC(CCC)(CN(C1)C3c1ccccn1)C2=O (stereo not given)	-14%	u
14	CCC1(CCC(C)C)C(=O)NC(=O)NC1=O	-13%[116 µM]	x
15	Cc1c(C(=O)c2cccc3ccccc23)c2cccc3c2n1[C@H](CN1CCOCC1)CO3	-27%	x
16	C[C@H]1CNCCc2ccc(Cl)cc21	-5%	x
17	CC(O)(CS(=O)(=O)c1ccc(F)cc1)C(=O)Nc1ccc(C#N)c(C(F)(F)F)c1 (stereo not given)	u	x
18	O=C(Nc1ccccc1-c1ccc(Cl)cc1)c1cccnc1Cl	-1%[116 µM]	x
19	CCCOC(=O)Cc1ccc(OCC(=O)N(CC)CC)c(OC)c1	-10%	x
20	CC(C)CC(N(C)C)C1(c2ccc(Cl)cc2)CCC1 (stereo not given)	-14%&-3%	x
21	CCN(CC)C(=O)c1ccc(C2=CC3(CCNCC3)Oc3cccc(O)c32)cc1	8%	x
22	O=C(NCC1CCOCC1)c1cnc(Nc2ccc(Cl)cc2Cl)nc1C(F)(F)F	u	x
23	CCCC12CN3CC(C)(CN(C1)C3c1c(C)[nH]c(=O)[nH]c1=O)C2=O (stereo not given)	-15%	2%
24	Cc1nnc(NC(=O)c2cccn(Cc3ccc(Cl)cc3)c2=O)s1	-4%	-6%
25	CCC1(CC)C(=O)C=CNC1=O	10%	x
26	CCOc1ccc(NC(=O)c2cccn(Cc3cccc(Cl)c3)c2=O)cc1	16µM*	-86%
27	Cc1cc(NC(=O)c2cccn(Cc3cccc(Cl)c3)c2=O)no1	-9%	-36%
28	Cc1ccc(NC(=O)Cn2cc(C(=O)c3ccccc3)c3ccccc32)cc1	u	u
29	C=CCC1([C@H](C)CCC)C(=O)NC(=O)NC1=O	-13%[116 µM]	x
30	NCC(O)c1ccc(O)cc1 (stereo not given)	-1%	x

(listing goes on)
#	SMILES	HTT prom inh	PMP22 txn
31	c1ccc(CN2CCNCC2)cc1	0%[222 µM]	x
32	COc1ccc(C)cc1NC(=O)N(Cc1ccc2c(c1)OCO2)C1CCN(Cc2ccccc2)CC1	u	u
33	Oc1ccc2[nH]cc(CCCCN3CC=C(c4ccccc4)CC3)c2c1	-9%	x
34	Nc1c(C(=O)Nc2ccc(OC(F)(F)F)cc2)sc2nc3c(cc12)N1CCC3CC1	7.9µM*	u
35	O=C1CC(c2ccccc2Br)c2c(c3ccccc3oc2=O)O1 (stereo not given)	-6%	1%
36	C=C(C)[C@H]1Cc2c(ccc3c2O[C@@H]2COc4cc(OC)c(OC)cc4[C@@H]2C3=O)O1	u	x
37	N[C@@H](Cc1ccc(N(CCCl)CCCl)cc1)C(=O)O	u	x
38	COc1cccc(-n2c(/C=C/c3ccccc3O)nc3ccccc3c2=O)c1	-21%	u
39	C[C@H]1CCCC=CC2C[C@H](O)C[C@@H]2[C@H](O)C=CC(=O)O1 (stereo not given in full)	u	x
40	CCc1ccccc1NC(=O)c1cccn(Cc2ccccc2F)c1=O	-4%	-25%
41	O=C1c2ccccc2C(=O)C1C(=O)C(c1ccccc1)c1ccccc1	-2%	x
42	N#Cc1cccc(NC(=O)c2sc3nc4c(cc3c2N)N2CCC4CC2)c1	21%	u
43	Cc1cccc(Cn2cccc(C(=O)Nc3nc4ccccc4s3)c2=O)c1	-17%	-3%
44	CCOC(=O)NC(C)(C)Cc1ccc(Cl)cc1	-3%	x
45	CCCCc1nn2c(=O)cc(COC(=O)Cc3ccccc3)nc2s1	-1%	u
46	CC1N=C(N)OC1c1ccccc1 (stereo not given)	-1%[116 µM]	x
47	O=C(Nc1ccon1)c1cccn(Cc2cccc(Cl)c2)c1=O	u	10%
48	CO/C=C(/C(=O)OC)c1ccccc1Oc1cc(Oc2ccccc2C#N)ncn1	u	x
49	Cn1c(=O)n(C)c2cc(CNCCc3ccccc3F)ccc21	-11%	-13%
50	CCC(OC(C)=O)C(CC(C)NC)(c1ccccc1)c1ccccc1 (stereo not given)	-27%[116 µM]	x
51	Cc1cccc(Cc2cnc[nH]2)c1C	4%	x
52	CC(C)NCC(O)c1ccc(N)c(C#N)c1 (stereo not given)	-2%	x
53	COC1CC(=C(c2cccs2)c2cccs2)C[N+](C)(C)C1 (stereo not given)	6%	x
54	CCCC(C)C1(CC)C(=O)N=C(S)NC1=O (stereo not given)	-6%	x
55	COc1ccc(CC2NCCc3cc(OC)c(OC)cc32)cc1OC (stereo not given)	u	x
56	C[C@]12CC[C@H]3[C@@H](CCC4=CC(=O)CC[C@@H]43)[C@@H]1CC[C@@H]2OC(=O)CCc1ccccc1	2%	x
57	OC(c1ccccc1)(c1ccccc1)C1CCNCC1	-5%	x
58	O=C(COc1ccccc1[N+](=O)[O-])N1CCN(CCc2ccncc2)CC1	-13%	-27%
59	Nc1ccc(Sc2ccc(N)cc2)cc1	5%[116 µM]	x
60	Cc1cccc(NC(=O)Cn2cc(C(=O)c3ccccc3)c3ccccc32)c1C	u	-29%

Part of the list above, with two lines to a compound.
Under each structure: HTT prom inh, PMP22 txn
#41 O=C1c2ccccc2C(=O)C1C(=O)C(c1ccccc1)c1ccccc1
  -2%, x
#52 CC(C)NCC(O)c1ccc(N)c(C#N)c1 (stereo not given)
  -2%, x
#46 CC1N=C(N)OC1c1ccccc1 (stereo not given)
  -1%[116 µM], x
#36 C=C(C)[C@H]1Cc2c(ccc3c2O[C@@H]2COc4cc(OC)c(OC)cc4[C@@H]2C3=O)O1
  u, x
#34 Nc1c(C(=O)Nc2ccc(OC(F)(F)F)cc2)sc2nc3c(cc12)N1CCC3CC1
  7.9µM*, u
#50 CCC(OC(C)=O)C(CC(C)NC)(c1ccccc1)c1ccccc1 (stereo not given)
  -27%[116 µM], x

Further entries follow.
#	SMILES	HTT prom inh	PMP22 txn
61	CCOC(C(=O)OCCN(C)C)(c1ccccc1)c1ccccc1	-7%	x
62	Nc1ccccc1C(=O)O	1%	x
63	Sc1ccccc1Cl	-2%	x
64	CC(C)(C)OC(=O)c1ncn2c1[C@@H]1CCCN1C(=O)c1c(Br)cccc1-2	-13%	x
65	Cc1ccccc1-c1nc(CN2C(=O)CN=C(c3ccccc3)c3ccccc32)c(C)o1	-26%	-13%
66	CC(C)Cc1nc2cccnc2n1C1CCNCC1	-16%	-4%
67	C[C@]12CC[C@@H]3[C@@H](CCC4=CC(=O)CC[C@@H]43)[C@@H]1CC[C@@H]2OC(=O)CCc1ccccc1	3%	x
68	CN1C[C@@H](NS(=O)(=O)N(C)C)C[C@@H]2c3cccc4c3c(cn4C)C[C@H]21	4%	x
69	CC(C)=CC1C(C(=O)OCc2cccc(Oc3ccccc3)c2)C1(C)C (stereo not given)	2%	x
70	CC(C)(O)C(Cl)(Cl)Cl	-2%	x
71	Oc1ccc([C@H]2CNCc3c2ccc(O)c3O)cc1O	0%	x
72	CC(=O)[C@H]1CC[C@H]2[C@@H]3CC[C@H]4C[C@](C)(O)CC[C@]4(C)[C@H]3CC[C@]12C	5%	x
73	O=S1(=O)N(Cc2ccccc2Cl)CCCN1Cc1ccccc1Cl	-22%	-33%
74	CN1[C@H]2CC(O)C[C@H]1[C@H]1O[C@H]12 (stereo not given in full)	u	x
75	COc1ccccc1NC(=O)N(Cc1ccc2c(c1)OCO2)C1CCN(Cc2ccccc2)CC1	-22%	u
76	CN(C)C(=O)Oc1cc(OC(=O)N(C)C)cc(C(O)CNC(C)(C)C)c1 (stereo not given)	-2%	x
77	COC(=O)C1=CCCN(C)C1	5%&2%	x
78	CN1CCN(c2oc(-c3ccc(COc4ccccc4)o3)nc2C#N)CC1	-17%	35%
79	COP(=S)(OC)Oc1cc(Cl)c(Cl)cc1Cl	8%	x
80	CCCOc1ccc(C2SCC(=O)Nc3c2c(C)nn3-c2cccc(C)c2)cc1OC (stereo not given)	u	u
81	C[C@H](N)C(=O)c1ccccc1	-3%[116 µM]	x
82	c1ccc(CCCN2CCN(CCOC(c3ccccc3)c3ccccc3)CC2)cc1	u	x
83	CN1CCc2cc(Cl)c(O)cc2[C@H]2c3ccccc3CC[C@@H]21	-5%	x
84	CCN(CC)C(=O)[C@@H]1C=C2c3cccc4[nH]cc(c34)C[C@H]2N(C)C1	-7%[222 µM]	x
85	CC(=O)NS(=O)(=O)c1ccc(NC(=O)c2cccn(Cc3ccc(Cl)cc3)c2=O)cc1	-15%	9%
86	O=C(Nc1ccon1)c1cccn(Cc2ccccc2)c1=O	-7%	0%
87	CCCN1CCC[C@@H]2Cc3nc(N)ncc3C[C@H]21	11%	x
88	C[C@@H](N)[C@@H](O)c1ccccc1	15%	x
89	CC(Cc1ccc(O)cc1)NCC(O)c1cc(O)cc(O)c1 (stereo not given)	8%	x
90	Cc1ncc(CNC(=O)N(CCCl)N=O)c(N)n1	-9%	x

An excerpt from above in order of number of heavy atoms, high to low.
#	SMILES	HTT prom inh	PMP22 txn
64	CC(C)(C)OC(=O)c1ncn2c1[C@@H]1CCCN1C(=O)c1c(Br)cccc1-2	-13%	x
74	CN1[C@H]2CC(O)C[C@H]1[C@H]1O[C@H]12 (stereo not given in full)	u	x
62	Nc1ccccc1C(=O)O	1%	x

Other structures
#	SMILES	HTT prom inh	PMP22 txn
91	CCN1C[C@]2(OC(=O)c3ccccc3NC(C)=O)CC[C@H](OC)[C@@]34[C@H]5CC6[C@@H](OC)C[C@](O)(C(C[C@@H]23)[C@@H]14)[C@@]5(O)[C@@H]6OC	-2%	x
92	Cc1ncsc1CCCl	11%	x
93	C[N+]1(CCF)[C@@H]2CC[C@H]1CC(OC(=O)C(O)(c1ccccc1)c1ccccc1)C2 (stereo not given in full)	-6%	x
94	NC1=NC(=O)C(c2ccccc2)O1 (stereo not given)	8%	x
95	O=[N+]([O-])/N=C1\NCCN1Cc1ccc(Cl)nc1	6%	x
96	O=C(O)CCCOc1ccc(Cl)cc1Cl	17%[116 µM]	x
97	CC(C)(C)CC(C)(C)c1ccc(O)cc1	-6%	x
98	CNC(=O)N1N=C(c2ccc(N)cc2)c2cc3c(cc2CC1C)OCO3 (stereo not given)	64%[activator]	x
99	COc1cc([C@@H]2c3cc4c(cc3[C@@H](O)C3COC(=O)C32)OCO4)cc(OC)c1O (stereo not given in full)	u	x
100	COc1ccc(-c2nc(CN3C(=O)CN=C(c4ccccc4)c4ccccc43)c(C)o2)cc1	-14%	u
101	O=C(Nc1ccc2c(c1)OCO2)c1cccn(Cc2cccc([N+](=O)[O-])c2)c1=O	-6%	8%
102	C=CC(=O)NCNC(=O)C=C	18%[116 µM]	x
103	O=C(Nc1ccc2c(c1)OCO2)c1cccn(Cc2ccc(F)cc2)c1=O	-24%	u
104	Cc1ccc(NC(=O)c2cccn(Cc3ccccc3C)c2=O)c(C)c1	-22%	2%

Whole records, looked up by structure. Screens in order: HTT prom inh | PMP22 txn
C=CC(=O)NCNC(=O)C=C is entered as 18%[116 µM] | x
Cc1ccc(NC(=O)c2cccn(Cc3ccccc3C)c2=O)c(C)c1 is entered as -22% | 2%
COc1cc([C@@H]2c3cc4c(cc3[C@@H](O)C3COC(=O)C32)OCO4)cc(OC)c1O (stereo not given in full) is entered as u | x
O=[N+]([O-])/N=C1\NCCN1Cc1ccc(Cl)nc1 is entered as 6% | x
Cc1ncsc1CCCl is entered as 11% | x

Assay outcomes from PubChem BioAssay.

The list is partial, so the mix of outcomes need not match the whole.
